T cruzi repl = inhibitors of intracellular T. cruzi growth, primary screen, luminescence, NIH3T3 host cells; T. cruzi beta-gal in NIH3T3, 90 h; inhibition, % (no concentration beside the values); 300,000 tested, 1.4% active; AID 1885, 2009;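 active means mean inhibition across valid replicates above about 55%, limit read from the data; inconclusive means mean below that limit but half or more replicates reach it; inactive means mean below it, under half of replicates reach it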;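 further: signal also drops with host cell toxicity which is not excluded here; 0% = plate median of DMSO wells and 100% = zero luminescence signal; higher percent means less beta-gal luminescence so fewer parasites; stock transfer was 50 nL into about 50 µL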
Calb FLC = C. albicans growth inhibition with fluconazole, primary screen, CaCi-2 strain, Alamar Blue fluorescence; C. albicans CaCi-2 (fluconazole-resistant clinical isolate) + fluconazole, 48 h; growth inhibition, % (test concentration not listed); 300,000 tested, 0.57% active; AID 1979, 2009;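 active means most replicates above 75%; inconclusive means exactly half above 75%; inactive means most below 75%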;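 further: all wells also contain fluconazole at 8 µg/ml as a sub-toxic cotreatment; 0% = median of DMSO wells and 100% = median of geldanamycin control wells; wells of about 8 µL received 7.5 nL stock; the first replicate is given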
Bfl-1 A1 inh = caspase 3/7 activation in MEF A1-2A-BIM cells, primary screen, A1 inhibitor project, cell-based, luminescence, HTS | Caspase-Glo 3/7 luminescence, 3 h; percent of clofoctol response, vehicle zero | caspase activation, % (concentration not given with the values) | 330,000 tested, 0.066% active | AID 2462, 2010;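 active means over half of replicate activation scores above 10%, or exactly half above 10 with the replicate mean above 10; inconclusive means replicate mean below 10 yet half the replicates above 10; inactive means over half of replicates below 10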;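 further: wells of about 30 µL received 50 nL stock; many hits fall short of the cut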
RanGTP-Imp inh = inhibitors of RanGTP-importin-beta interaction, primary screen, biochemical, FRET, CFP-Ran, YFP-importin-beta, homogeneous; Ran GTPase (GTP-bound) - importin-beta complex; cell-free CFP-Ran/YFP-importin-beta FRET ratio; inhibition, % (no concentration beside the values); 300,000 tested, 1.1% active; AID 2216, 2009;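 active means most replicates above 15%; inconclusive means exactly half above 15%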;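 further: 0% = DMSO wells and 100% = Ran loaded with GDP instead of GTP; wells of about 40 µL received 100 nL stock; the first replicate is given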
AF4-AF9 inh = inhibitors of AF4 peptide binding to AF9, primary screen, biochemical, AlphaScreen, biotin-AF4 peptide, FLAG-AF9, single point | Protein AF-9 (Homo sapiens), P42568 | inhibition, % at 10 µM | 350,000 tested, 0.47% active;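 active means every replicate reaching a set inhibition limit, whatever the replicate mean, cut at about 25% in these data; inconclusive means mean inhibition reaches that limit but some replicates miss it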;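 further: 0% = plate neutral control median and 100% = total signal loss; the record names both 10 and 1 µM as test concentration; the first replicate is given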
Target sequence (P42568 whole entry, looked up): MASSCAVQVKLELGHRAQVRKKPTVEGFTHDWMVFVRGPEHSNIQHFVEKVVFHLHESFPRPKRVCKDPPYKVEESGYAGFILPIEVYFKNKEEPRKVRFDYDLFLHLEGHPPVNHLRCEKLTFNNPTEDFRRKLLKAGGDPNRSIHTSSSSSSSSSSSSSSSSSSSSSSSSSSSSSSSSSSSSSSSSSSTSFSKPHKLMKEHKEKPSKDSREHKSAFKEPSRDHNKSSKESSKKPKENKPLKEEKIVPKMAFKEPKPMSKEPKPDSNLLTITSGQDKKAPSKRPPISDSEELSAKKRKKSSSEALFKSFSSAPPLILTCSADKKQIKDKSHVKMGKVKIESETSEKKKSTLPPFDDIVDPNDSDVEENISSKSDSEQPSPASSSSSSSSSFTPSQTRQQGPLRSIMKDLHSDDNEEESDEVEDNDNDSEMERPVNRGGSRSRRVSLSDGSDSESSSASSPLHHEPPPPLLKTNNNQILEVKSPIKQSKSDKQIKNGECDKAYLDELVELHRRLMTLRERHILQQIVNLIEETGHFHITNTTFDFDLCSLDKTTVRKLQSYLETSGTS
Beta apoptosis = inhibitors of cytokine-induced beta cell apoptosis, primary screen, luminescence. INS-1E cytokine-induced death, ATP luminescence, 48 h; percent of positive-control rescue, neutral wells zero. protection from apoptosis, % (no concentration beside the values). 300,000 tested, 0.8% active. AID 435005, 2010;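 active means all replicates at 75% or more, or half of them and the mean; inconclusive means half reach 75% but not the mean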;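 further: 0% = cytokine-treated negative control wells and 100% = positive control rescue; higher means more ATP so stronger rescue from cytokine killing; wells of about 40 µL received 100 nL stock; the first replicate is given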
Vif TR-FRET = inhibitors of Vif binding to APOBEC3G peptide, primary screen, biochemical, TR-FRET, GST-Vif 1-94, biotin-A3G peptide, dose response retest (AID 1117319). 260,000 tested, 0.57% active. TR-FRET GST-Vif / biotin-A3G peptide binding; higher % means a stronger effect; test concentration not given here; strong numbers were not always called active. inhibition, %, or IC50 in µM where a hit was titrated. Virion infectivity factor (Human immunodeficiency virus type 1 group M subtype B (isolate …;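 active means above the screen mean plus three standard deviations and confirmed in dose response; inconclusive means results disagree or hit not tested in dose response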;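 further: Vif residues 1-94 fused to GST binding biotinylated APOBEC3G peptide 110-148; 0% = full assay without inhibitor and 100% = GST in place of GST-Vif; retest series ran down from 100 µM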
rRNA inh HTS = reduced GFP signal of wild-type E. coli, primary screen, bacterial rRNA inhibitor project, GFP/RFP fluorescence, OD600, single point | 350,000 tested, 1.6% active | GFP signal change (wild-type ribosome), % (test concentration not listed) | E. coli WT GFP vs humanized-ribosome RFP mutants, 24 h; hits give low values; DMSO median 0, no signal -100;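 active means significant combined selectivity score with lowered wild-type GFP, culture density cut under 30%, mutant RFP and density less affected; inactive means any of these conditions unmet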; further: one replicate is shown; some compounds called inactive have numbers as strong as hits
rRNA inh HTS OD600 = also measured in rRNA inh HTS; calls as there; OD600 change, %; measured here: OD600 growth;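 optical density of the mix in the first replicate; 0 = DMSO median and -100 = no signal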
rRNA inh HTS RFP = further read-out of rRNA inh HTS, marked with its call; RFP signal change, %; measured here: RFP humanized mutant strains;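 first replicate; 0 = DMSO median and -100 = no signal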
* hit, by the source's call; u = inconclusive; x = not tested or not shown; & = joins results of further samples. A portion of the library; the hit share may differ from the screen's.

SMILES	T cruzi repl	Calb FLC	Bfl-1 A1 inh	RanGTP-Imp inh	AF4-AF9 inh	Beta apoptosis	Vif TR-FRET	rRNA inh HTS	rRNA inh HTS OD600	rRNA inh HTS RFP
O=[N+]([O-])c1cc(/C=N/N/C(=N/c2ccccn2)c2ccccn2)ccc1O	-27	22	0.4	u	3.2	-6	x	4	5	0.4
Cn1cnnc1SCC(=O)NCc1ccccc1	-10	9	0.3	-1.6	0.1	-5	19%	19	6	1.0
OCc1nc2nc(Cl)c(Cl)nc2[nH]1	-7	x	0.4	13	-2.4	-7	-7%	14	9	5.6
CNc1ncnc2sc(-c3ccccc3)cc12	-1	1	-2.3	-2.1	-2.2	4	x	-36	-56	-5.3
Cc1ccc2[nH]c(=O)c3cc(C(=O)N(C)c4ccccc4C)sc3c2c1	22	1	0.5	4.3	0.7	10	x	13	4	0.3
CCOC(=O)c1nn(-c2ccc(OCC)cc2)c2nc(-c3ccco3)c(C#N)c(=O)n12	21	2	0.2	14	2.3	11	6%	4	2	-1.3
NNC(=O)C(=O)NCCCN1CCOCC1	4	18	0.3	-4.1	-1.9	x	4%	10	9	3.0
COc1ccc(NC(=O)CSc2n[nH]c(=O)n2C2CC2)cc1OC	x	x	0.5	x	-0.9	-1	1%	x	x	x
CN1CCN(C(=O)c2ccc(S(=O)(=O)Nc3ccccc3)cc2)CC1	x	x	0.8	x	-19	0	10%	-1	-1	-1.1
Cc1ccc(C(CNC(=O)C(=O)Nc2ccc3c(c2)OCCO3)N2CCN(C)CC2)cc1 (stereo not given)	9	4	0.7	-0.5	3.5	x	-8%	2	3	-0.6
CCOc1ccc(S(=O)(=O)NCCC(=O)OCC(=O)c2ccc(NC(C)=O)cc2)cc1	-8	-14	0.1	-2.6	-2.3	x	-10%	-20	10	11
COc1ccc(S(=O)(=O)N(C)c2ccc(C(=O)N3CCC(C(N)=O)CC3)cc2)cc1OC	-12	-11	0.6	3.1	-2.1	-6	x	10	15	-6.0
C=C(C(=O)c1ccccc1)C(CC(=O)c1ccccc1)c1ccccc1 (stereo not given)	24	0	-0.2	-1.9	x	-27	17%	x	x	x
CCCCCC(=O)Nc1ccc(N2CCN(C(=O)c3ccccc3)CC2)cc1	16	0	-0.5	9.0	x	x	u	x	x	x
O=C(NCc1ccco1)c1cnn2c(C(F)F)cc(-c3ccccc3)nc12	19	3	-0.2	32*	x	10	-1%	x	x	x
CCOC(=O)N1CCC(NC(=O)CS(=O)Cc2nc(-c3ccc(OC)c(OC)c3)oc2C)CC1 (stereo not given)	-14	-2	-0.5	-4.5	x	0	30%&-7%	x	x	x
CC(Sc1nncs1)C(=O)Nc1ccc2c(c1)OCCO2 (stereo not given)	0	-1	-0.3	x	-1.2	1	32%	9	16	1.0
COc1ccc(CN2CCC(=O)N([C@H](CO)CC(C)C)CC2)cc1OC	-13	3	0.0	4.8	1.4	-2	x	9	14	7.4
c1ccc2oc(SCc3nc4ccccc4s3)nc2c1	22	8	-4.7	3.3	x	-1	-4%	x	x	x
O=C(Cn1cnc2c(nnn2-c2cccc(Cl)c2)c1=O)N1CCOCC1	-13	-2	-1.2	2.0	-12	-3	x	-5	13	-2.6
Cc1nc2ccc(S(=O)(=O)N(C)CC(=O)N3CCc4ccccc43)cc2s1	-1	23	0.0	-1.8	x	2	66%	x	x	x
Cc1cccc(C(=O)Nc2ccc(C(=O)Nc3ccc(O)cc3)cc2)c1	-3	4	-0.8	2.4	0.5	2	x	-12	-4	-4.5
CCSc1ccccc1-c1nc(-c2ccncc2)no1	-2	-1	-6.2	2.1	-2.6	x	7%	-38	-47	-9.0
Clc1ccc(Cc2ccc(Cl)nn2)c(Cl)c1	-7	11	0.5	-0.5	x	-8	2%	x	x	x
O=C(CCCc1cccs1)Nc1ccc2c(c1)OCO2	-4	1	0.4	0.6	0.4	-3	-3%	-3	3	-1.6

In a second layout: entries from further up.
O=[N+]([O-])c1cc(/C=N/N/C(=N/c2ccccn2)c2ccccn2)ccc1O
  T cruzi repl = -27
  Calb FLC = 22
  Bfl-1 A1 inh = 0.4
  RanGTP-Imp inh = u
  AF4-AF9 inh = 3.2
  Beta apoptosis = -6
  Vif TR-FRET = x
  rRNA inh HTS = 4
  rRNA inh HTS OD600 = 5
  rRNA inh HTS RFP = 0.4

Cn1cnnc1SCC(=O)NCc1ccccc1
  T cruzi repl = -10
  Calb FLC = 9
  Bfl-1 A1 inh = 0.3
  RanGTP-Imp inh = -1.6
  AF4-AF9 inh = 0.1
  Beta apoptosis = -5
  Vif TR-FRET = 19%
  rRNA inh HTS = 19
  rRNA inh HTS OD600 = 6
  rRNA inh HTS RFP = 1.0

Next part:
SMILES	T cruzi repl	Calb FLC	Bfl-1 A1 inh	RanGTP-Imp inh	AF4-AF9 inh	Beta apoptosis	Vif TR-FRET	rRNA inh HTS	rRNA inh HTS OD600	rRNA inh HTS RFP
COc1ccc(C(=O)c2c[nH]c(C(=O)N=CN(C)C)c2)cc1	5	-12	-0.4	1.3	-2.3	-7	-1%	20	14	-1.3
O=C(Nc1ccc(N2CCCC2=O)cc1)c1cncc(Br)c1	-19	-5	-2.6	-3.2	-2.0	-5	x	1	3	-5.4
CC1CCCN(C(=O)c2ccc(Br)c(S(=O)(=O)N3CCOCC3)c2)C1 (stereo not given)	x	x	-0.5	x	-5.2	2	-8%	6	-1	-0.9
Cc1ccc(OCCN2C(=O)c3ccccc3C2=O)cc1	-10	-28	0.0	-2.1	x	-10	0%	x	x	x
COc1ccc(NC(=O)[C@H](COCc2ccccc2)NC(=O)OC(C)(C)C)cc1	-9	-4	-0.4	-2.9	x	-1	4%	x	x	x
O=C1CC2(CCCCC2)Oc2ccc(Cl)cc21	-20	-8	0.2	2.9	x	2	x	11	12	2.5
O=C(CNc1ccccc1)N/N=C/c1cc([N+](=O)[O-])ccc1N1CCCC1	5	1	0.5	-0.4	x	8	-3%	x	x	x
COC(=O)C(C(=O)Nc1cc(C)on1)C1CCCCCC1 (stereo not given)	-5	11	-0.4	-5.8	x	2	1%	x	x	x
Cc1ccc(CSCCC(=O)NCCc2ccc(Cl)cc2)cc1	20	3	-0.6	-2.2	x	-5	x	x	x	x
O=C(Nc1ccccc1Oc1ccccc1)c1cccc([N+](=O)[O-])c1	-22	-13	0.2	0.3	x	-4	u	x	x	x
Clc1ccc(CN2CCN(/N=C/c3ccco3)CC2)cc1	1	4	0.1	-2.9	13	-7	8%	x	x	x
COC(=O)CN1C(=O)COc2ccc(S(=O)(=O)NCc3ccc(Cl)cc3)cc21	8	-2	-0.7	1.7	-1.6	4	x	-10	-6	0.3
Cc1ccc(-c2cc(C(=O)Nc3nccs3)c3ccccc3n2)c(C)c1	31	-6	0.5	3.3	2.9	12	x	x	x	x
CCCN1C2CCCC1CC(NC(=O)c1ccc(C(C)(C)C)cc1)C2 (stereo not given)	-3	-5	-0.6	-0.7	0.8	-4	x	4	7	0.1
COc1ccccc1-c1nc(NC(C)=O)n[nH]1	-20	20	-1.4	2.1	x	0	u	x	x	x
COc1cc(OC)cc(C(=O)Nc2ccc([N+](=O)[O-])cn2)c1	-1	1	-0.5	-2.7	x	6	x	x	x	x
O=C(COc1ccc(Cl)cc1)NCCN1CCCCC1	0	-20	0.9	1.5	-1.5	-3	-5%	10	9	-16
CC1CN(c2nc3c(c(=O)n(C)c(=O)n3C)n2Cc2c(F)cccc2Cl)CC(C)O1 (stereo not given)	9	1	-0.3	u	x	1	16%	x	x	x
O=C(Cn1c(Cc2ccccc2)nc2ccccc21)NCc1ccc2c(c1)OCO2	5	-11	0.4	2.1	x	-1	-5%	x	x	x
COC(=O)[C@@H](NC(=O)N1CCC(C)CC1)C(C)C	-6	-21	-2.2	5.1	-1.0	-7	1%	20	9	1.6
C=CC[C@@H](Cc1ccc(F)cc1)C(=O)OC[C@@H]1CCCN1C(=O)[C@@H](CC=C)CC(=O)N[C@H](CO)Cc1ccccc1	x	x	-0.7	x	2.3	-8	x	-29	-34	26
COc1ccc2cc(C(=O)NCc3ccccc3CN3CCCC3)ccc2c1	x	x	1.8	x	8.1	15	3%	-7	-11	2.0
O=C(CN1CCCC1c1ccc2c(c1)OCCO2)NC(=O)Nc1ccccc1 (stereo not given)	x	x	1.3	x	7.8	-3	x	-14	-22	1.4
OCC[C@@H]1C[C@H](O)[C@@H](O)[C@]2(OCc3ccccc32)O1	-3	-6	-0.1	-1.0	-17	-3	x	-2	1	-4.1
Cc1cc(NC(=O)CSCC(=O)Nc2ccccc2N2CCCCC2)no1	-5	4	-0.1	6.2	-13	-4	0%	9	16	-1.7
Continuation:
SMILES	T cruzi repl	Calb FLC	Bfl-1 A1 inh	RanGTP-Imp inh	AF4-AF9 inh	Beta apoptosis	Vif TR-FRET	rRNA inh HTS	rRNA inh HTS OD600	rRNA inh HTS RFP
Cc1cccc2sc(NC(=O)c3ccc(Cl)s3)nc12	3	-5	-1.6	0.7	-49	30	-16%	-8	-8	-9.8
COC(=O)c1ccc(N2CC3CNC(=O)C2(C(=O)OC)N3C)cc1 (stereo not given)	x	x	0.9&0.1	x	-6.6&-5.8	-7&1	x	6&-1	5&8	-3.7&12
O=C(COC(=O)c1ccc(O)cc1)Nc1cccc(S(=O)(=O)NC2=NCCCCC2)c1	-7	-1	1.8	5.7	8.0	-2	4%	-4	-3	-6.7
O=C(CSc1ccc([N+](=O)[O-])cn1)Nc1ccc(N2CCOCC2)cc1	2	5	0.9	-1.3	2.1	-4	29%	9	2	-6.1
Cc1nn(CCc2n[nH]c(=S)n2C)c(C)c1Br	-9	-20	0.4	-1.2	x	-2	4%	x	x	x
Cc1ccc(OCC(=O)Nc2ccc(S(=O)(=O)Nc3ccccn3)cc2)c(C)c1	-6	1	1.0	2.1	x	-3	u	x	x	x
O=C(Nc1nc2ccccc2[nH]1)c1cccc(Cl)c1	7	-4	-4.0	-0.7	-1.2	x	-7%	3	9	4.1

Screens as filed in PubChem BioAssay.
